# UUG fidelity – alters start codon recognition fidelity in yeast | activity score, % at 18.7 µM | AID 602363 | 0.13% of 350,000 active | S. cerevisiae UUG-firefly luciferase reporter, luminescence/redox ratio;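 active = replicate mean at a twofold rise or more, about +100% in these data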;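 also: firefly luciferase made from a UUG start codon reports start codon fidelity; reporter light over untreated wells divided by growth signal over untreated wells; some hits fall short of that in this replicate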
# An asterisk follows results filed as active. Not all compounds are listed (hit frequency here may not be typical).
SMILES,UUG fidelity
C[C@H](NC(=O)C[C@@H]1C[C@H]2c3cc(NC(=O)CC4CC4)ccc3O[C@H]2[C@H](CO)O1)c1ccccc1,8
O=C(C[C@H]1CC[C@@H]2[C@H](COC[C@H](O)CN2S(=O)(=O)c2ccccc2)O1)NCC1CCCCC1,-1
C/C=C/c1ccc([C@H]2[C@@H](CNC(C)C)N(C(=O)c3ccccc3)[C@H]2CO)cc1,-4
C[C@H](CO)N1C[C@H](C)[C@@H](CN(C)C)Oc2c(NC(=O)Nc3ccc(F)cc3)cccc2C1=O,17
COCC(=O)N1CC[C@H]2[C@@H]1c1cc(-c3ccccc3)ccc1N(C)[C@H]2CO,-7
CCC(=O)N1C[C@H](C)[C@@H](OC)CN(C)C(=O)c2cc(NC(=O)NC(C)C)ccc2OC[C@H]1C,23
CN1c2ccc(C3=CCCCC3)cc2[C@@H]2[C@@H](CCN2C(=O)NC2CCCCC2)[C@H]1CO,4
CO[C@H]1CN(C)C(=O)c2cc(NS(C)(=O)=O)ccc2OC[C@@H](C)N(CC2CC2)C[C@H]1C,-12
C[C@@H]1CN([C@@H](C)CO)C(=O)c2cc(NC(=O)Cc3ccccc3)ccc2O[C@H]1CN(C)Cc1ccc(Cl)c(Cl)c1,-1
O=C(NCC1CC1)[C@@H]1[C@@H](CO)[C@@H]2Cn3c(ccc(-c4cccnc4)c3=O)[C@H]1N2C(=O)C1CCCCC1,0
C[C@@H]1CN([C@H](C)CO)C(=O)c2cccc(NS(=O)(=O)c3ccc(F)cc3)c2O[C@H]1CN(C)Cc1ccc(Cl)c(Cl)c1,13
O=C(NC[C@@H]1[C@@H](c2ccccc2)[C@H](CO)N1C(=O)Cc1cccnc1)C1CCC1,-17
Cc1noc(C)c1S(=O)(=O)N(C)C[C@H]1Oc2c(NC(=O)c3ccc(-c4nccs4)cc3)cccc2C(=O)N([C@H](C)CO)C[C@@H]1C,12
O=C(C[C@H]1CC[C@@H]2[C@H](COC[C@H](O)CN2C(=O)c2ccccn2)O1)N1CCN(c2ccccc2)CC1,-20
C[C@@H]1CN([C@H](C)CO)C(=O)c2cc(NS(=O)(=O)c3cn(C)cn3)ccc2O[C@H]1CN(C)Cc1ccc2c(c1)OCO2,-14
CC(=O)N1CCCCN2[C@@H](CO)[C@H](c3ccc(Br)cc3)[C@@H]2C1,-5
C[C@H](CO)N1C[C@H](C)[C@@H](CN(C)C)Oc2ccc(NC(=O)c3ccncc3)cc2C1=O,-2
CC(C)NC(=O)N1C[C@@H]2[C@H](c3ccccc31)[C@@H](CO)N2C(=O)Nc1ccc(F)cc1,8
CC(C)C#Cc1ccc([C@@H]2[C@@H](CO)N3CCCCN(C(=O)Nc4ccccc4)C[C@@H]23)cc1,13
COc1ccc(-c2ccc([C@H]3[C@H](CO)N4CCCCN(C(=O)NC(C)C)C[C@@H]34)cc2)cc1,-3
C[C@@H]1CN([C@H](C)CO)C(=O)c2cc(NS(C)(=O)=O)ccc2O[C@H]1CN(C)C(=O)NC1CCCCC1,-16
COCC(=O)Nc1ccc2c(c1)C(=O)N(C)C[C@@H](OC)[C@H](C)CN(CC1CC1)[C@H](C)CO2,-12
C[C@@H]1CN([C@H](C)CO)C(=O)c2cccc(NC(=O)C3CCOCC3)c2O[C@H]1CN(C)S(=O)(=O)c1cn(C)cn1,-18
COc1ccc(NC(=O)N2CCCCN3[C@H](CO)[C@@H](c4ccc(C5=CCCC5)cc4)[C@H]3C2)cc1,2
O=C(C[C@H]1CC[C@@H]2[C@H](COC[C@@H](O)CN2Cc2ccc(F)cc2)O1)N1CCc2ccccc2C1,7

# New compounds follow
SMILES,UUG fidelity
CC(C)NC(=O)N1CCCCN2[C@H](C1)[C@@H](c1ccc(C#CC3CC3)cc1)[C@@H]2CO,0
C[C@@H]1CN([C@H](C)CO)C(=O)c2cc(NC(=O)CCN3CCOCC3)ccc2O[C@@H]1CN(C)S(=O)(=O)c1ccc(Cl)cc1,13
CCCC(=O)Nc1ccc2c(c1)C(=O)N(C)[C@H]1CC[C@@H](CC(=O)N3CCCCC3)O[C@@H]1CO2,-4
COc1ccc(-c2ccc3c(c2)[C@@H]2[C@@H](CCN2C(=O)Cc2ccccc2)[C@H](CO)N3C)cc1,1
CCC(=O)N1CC[C@@H]2[C@@H](CO)Nc3ccc(C#Cc4ccc(F)cc4)cc3[C@@H]21,-6
CO[C@H]1CN(C)C(=O)c2ccc(NC(=O)c3cnccn3)cc2OC[C@@H](C)N(C(C)=O)C[C@@H]1C,11
Cc1ccc(S(=O)(=O)Nc2ccc3c(c2)CC(=O)N([C@@H](C)CO)C[C@H](C)[C@@H](CN(C)C(=O)Nc2ccc(F)cc2)O3)cc1,16
CN1c2ccc(C#Cc3cccnc3)cc2[C@H]2[C@H](CCN2C(=O)CN2CCOCC2)[C@@H]1CO,-2
C[C@@H]1CN([C@H](C)CO)C(=O)c2cccc(NC(=O)C3CCOCC3)c2O[C@@H]1CN(C)Cc1ccc(-c2ccccc2)cc1,1
CN(C[C@@H]1[C@@H](c2ccccc2)[C@H](CO)N1C(=O)C1CC1)C(=O)c1ccccn1,-9
C[C@H]1CN([C@@H](C)CO)C(=O)Cc2cc(NC(=O)C3CCCCC3)ccc2O[C@@H]1CN(C)S(=O)(=O)c1ccccc1,20
CN1c2ccc(Br)cc2[C@@H]2[C@@H](CCN2C(=O)Nc2cc(F)ccc2F)[C@@H]1CO,8
C[C@@H](NC(=O)C[C@@H]1CC[C@@H]2[C@H](COC[C@@H](O)CN2C(=O)Nc2ccccc2)O1)c1ccccc1,-7
Cc1ccc(S(=O)(=O)N(C)C[C@@H]2Oc3ccc(NC(=O)c4ccncc4)cc3C(=O)N([C@@H](C)CO)C[C@H]2C)cc1,-1
C[C@H]1CN([C@@H](C)CO)C(=O)Cc2cc(NC(=O)CCC(F)(F)F)ccc2O[C@@H]1CN(C)C,5
CN1C(=O)c2cc(NC(=O)c3cccc(F)c3)ccc2OC[C@H]2O[C@H](CC(=O)NCc3ccccc3Cl)CC[C@H]21,-4
O=C(CN1CCOCC1)N1CCCCN2[C@@H](CO)[C@@H](c3ccc(Br)cc3)[C@@H]2C1,-6
C[C@H](NC(=O)C[C@H]1CC[C@H]2[C@@H](COC[C@@H](O)CN2C(=O)Nc2cccc(F)c2)O1)c1ccccc1,0
COc1ccc(NC(=O)N(C)C[C@H]2OCc3ccccc3-c3ccccc3C(=O)N([C@@H](C)CO)C[C@H]2C)c(OC)c1,1
O=C(c1cccc(F)c1)N1CC[C@H]2[C@H](CO)Nc3ccc(-c4cccc(F)c4)cc3[C@H]21,-5
C[C@@H]1CN([C@H](C)CO)C(=O)c2cc(NS(C)(=O)=O)ccc2O[C@@H]1CN(C)S(=O)(=O)c1ccc(F)cc1,10
CN(C)C(=O)C[C@@H]1CC[C@H]2[C@H](COc3ccc(NC(=O)C4CC4)cc3C(=O)N2C)O1,-8
O=C(CC(F)(F)F)N1C[C@@H]2[C@H](c3ccccc31)[C@H](CO)N2C(=O)CN1CCOCC1,-4
CCS(=O)(=O)Nc1ccc2c(c1)C(=O)N(C)C[C@H](OC)[C@H](C)CN(C(=O)C1CC1)[C@H](C)CO2,-6
O=C(C[C@@H]1CC[C@@H]2[C@H](COC[C@H](O)CN2S(=O)(=O)c2ccc(Cl)cc2)O1)NCC1CCCCC1,13

# Some of the entries so far, as labelled records.
canonical_smiles: O=C(CN1CCOCC1)N1CCCCN2[C@@H](CO)[C@@H](c3ccc(Br)cc3)[C@@H]2C1
  UUG fidelity: -6

canonical_smiles: C[C@H](NC(=O)C[C@H]1CC[C@H]2[C@@H](COC[C@@H](O)CN2C(=O)Nc2cccc(F)c2)O1)c1ccccc1
  UUG fidelity: 0

# Three entries out of the list above, sorted by the number in UUG fidelity, high to low.
SMILES,UUG fidelity
C[C@H](CO)N1C[C@H](C)[C@@H](CN(C)C)Oc2ccc(NC(=O)c3ccncc3)cc2C1=O,-2
O=C(NC[C@@H]1[C@@H](c2ccccc2)[C@H](CO)N1C(=O)Cc1cccnc1)C1CCC1,-17
C[C@@H]1CN([C@H](C)CO)C(=O)c2cccc(NC(=O)C3CCOCC3)c2O[C@H]1CN(C)S(=O)(=O)c1cn(C)cn1,-18

# Other records
SMILES,UUG fidelity
CN1C[C@H]2[C@@H](c3ccccc31)[C@@H](CO)N2Cc1ccccc1Cl,15
COCC(=O)Nc1ccc2c(c1)OC[C@H](C)N(Cc1ccccc1OC)C[C@@H](C)[C@H](OC)CN(C)C2=O,-3
CN(C)C(=O)c1cccc(-c2ccc([C@H]3[C@@H](CO)N4CCCCN(C(=O)C5CCCC5)C[C@@H]34)cc2)c1,1
CN1C(=O)c2cc(NC(=O)Nc3cccc(Cl)c3)ccc2OC[C@@H]2O[C@H](CC(=O)NCCc3ccncc3)CC[C@@H]21,-19
COCC(=O)N1CCCCN2[C@H](CO)[C@H](c3ccc(-c4cccc(C)c4)cc3)[C@@H]2C1,3
CNC[C@H]1Oc2ccc(NC(=O)Cn3cnnn3)cc2CC(=O)N([C@H](C)CO)C[C@@H]1C,4
OC[C@H]1[C@H](c2ccc(C#CC3CCCC3)cc2)[C@@H]2CN(CCC(F)(F)F)CCCCN12,10
Cc1cc(C(=O)Nc2cccc3c2O[C@H](CN(C)C(=O)Nc2c(C)noc2C)[C@@H](C)CN([C@@H](C)CO)C3=O)n(C)n1,-17
CO[C@@H]1CN(C)C(=O)c2cc(NC(=O)Cc3ccccc3)ccc2OC[C@@H](C)N(C(=O)c2ccccc2F)C[C@H]1C,0
C[C@@H]1CN([C@@H](C)CO)C(=O)c2c(c3ccccc3n2C)-c2ccccc2CO[C@H]1CN(C)C(=O)Nc1ccccc1,22
O=C(c1ccc2c(c1)OCO2)N1CC[C@@H]2[C@H](CO)Nc3ccc(-c4ccccc4)cc3[C@@H]21,14
C[C@H]1CN([C@@H](C)CO)C(=O)c2cccc(NS(=O)(=O)c3ccc(Cl)cc3)c2O[C@H]1CN(C)Cc1ccc2c(c1)OCO2,-8
C[C@@H]1CN([C@@H](C)CO)C(=O)c2cccc(NC(=O)c3ccncc3)c2O[C@H]1CN(C)C(=O)Nc1ccccc1,12
CO[C@H]1CN(C)C(=O)c2ccc(NS(=O)(=O)c3ccccc3C)cc2OC[C@@H](C)NC[C@H]1C,6
C[C@H]1CN([C@@H](C)CO)C(=O)c2cccc(NC(=O)c3ccncc3)c2O[C@H]1CN(C)Cc1ccc(C(=O)O)cc1,-3
C[C@H](CO)N1C[C@H](C)[C@@H](CN(C)C)Oc2ccc(NC(=O)CCC(F)(F)F)cc2CC1=O,-1
Cc1noc(C)c1NC(=O)N(C)C[C@H]1Oc2ccc(NC(=O)Cc3cn(C)c4ccccc34)cc2C(=O)N([C@@H](C)CO)C[C@@H]1C,12
CC(C)NC(=O)N(C)C[C@H]1Oc2ccc(NC(=O)Cc3ccccc3)cc2C(=O)N([C@@H](C)CO)C[C@@H]1C,11
C[C@H](NC(=O)[C@H]1[C@H](CO)[C@H]2Cn3c(ccc(C4=CCCC4)c3=O)[C@H]2N1C)c1ccccc1,12
CO[C@@H]1CN(C)C(=O)c2cc(NS(C)(=O)=O)ccc2OC[C@@H](C)N(CC2CCCCC2)C[C@@H]1C,3
CO[C@H]1CN(C)C(=O)c2ccc(NS(=O)(=O)c3cn(C)cn3)cc2OC[C@@H](C)N(CC2CC2)C[C@@H]1C,-4
CN1c2ccc(-c3cccc(C#N)c3)cc2[C@H]2[C@H](CCN2C(=O)C2CCC2)[C@@H]1CO,-1
Cc1nn(C)cc1NC(=O)C[C@H]1CC[C@H]2[C@@H](COc3ccc(NC(=O)Nc4cccc(Cl)c4)cc3C(=O)N2C)O1,-11
C[C@@H]1CN([C@H](C)CO)C(=O)CCCn2nncc2CO[C@H]1CN(C)S(=O)(=O)c1ccc(-c2ccccc2)cc1,2
CCN(C[C@H]1N[C@H](CO)[C@H]1c1ccc(C2=CCCC2)cc1)C(=O)c1cccnc1,-7

# Other structures follow:
SMILES,UUG fidelity
COc1ccc(S(=O)(=O)Nc2ccc3c(c2)C(=O)N([C@@H](C)CO)C[C@@H](C)[C@@H](CN(C)Cc2ccncc2)O3)cc1,-13
C[C@H]1CN([C@@H](C)CO)C(=O)c2cc(NS(=O)(=O)c3ccccc3)ccc2O[C@@H]1CN(C)Cc1ccc(Cl)c(Cl)c1,1
C[C@H](CO)N1C[C@H](C)[C@@H](CN(C)C(=O)Nc2cccc3ccccc23)OCc2cnnn2CCCC1=O,0
O=C(C1CC1)N1C[C@@H]2[C@H](c3ccccc31)[C@H](CO)N2S(=O)(=O)c1ccccc1,3
CN(C)C(=O)c1cccc(-c2ccc3c(c2)[C@@H]2[C@@H](CCN2Cc2ccccc2F)[C@@H](CO)N3)c1,-11
COCCN(C[C@H]1N[C@H](CO)[C@H]1c1ccc(-c2cccc(F)c2)cc1)C(C)=O,-8
C[C@H]1CN([C@@H](C)CO)C(=O)Cc2cc(NC(=O)Nc3ccc(F)cc3)ccc2O[C@H]1CN(C)Cc1ccc2c(c1)OCO2,-8
O=C(Nc1ccccc1)N1CCCCN2[C@H](C1)[C@@H](c1ccc(C#Cc3cccnc3)cc1)[C@@H]2CO,2
CN1c2ccc(-c3ccc(F)cc3)cc2[C@H]2[C@H](CCN2C(=O)C2CCOCC2)[C@@H]1CO,6
O=C(NC[C@@H]1N[C@@H](CO)[C@H]1c1ccccc1)C1CCCC1,-23
CO[C@H]1CN(C)C(=O)c2ccc(NC(=O)C3CCC3)cc2OC[C@H](C)N(Cc2nccs2)C[C@H]1C,12
CCC(=O)Nc1ccc2c(c1)C(=O)N(C)C[C@@H](OC)[C@@H](C)CN(Cc1cccc(F)c1)[C@@H](C)CO2,7

# Rewritten with each value named: part of the list above.
C[C@H]1CN([C@@H](C)CO)C(=O)Cc2cc(NC(=O)Nc3ccc(F)cc3)ccc2O[C@H]1CN(C)Cc1ccc2c(c1)OCO2
  UUG fidelity: -8
O=C(Nc1ccccc1)N1CCCCN2[C@H](C1)[C@@H](c1ccc(C#Cc3cccnc3)cc1)[C@@H]2CO
  UUG fidelity: 2
CN1c2ccc(-c3ccc(F)cc3)cc2[C@H]2[C@H](CCN2C(=O)C2CCOCC2)[C@@H]1CO
  UUG fidelity: 6
O=C(NC[C@@H]1N[C@@H](CO)[C@H]1c1ccccc1)C1CCCC1
  UUG fidelity: -23
